# VDR inhibitor – vitamin D3 receptor (human) inhibition; P11473; VDR-SRC2-3 peptide fluorescence polarization, 2 h; Potency, µM, for inactives: max response, negative = inhibition, hits mostly inhibitors; 400,000 tested, 0.93% active; AID 504847; active means well fitted inhibition curve with a large enough effect; inconclusive means small, poorly fitted or top-dose-only effect, or another doubt; inactive means no such curve, though single readings can be large or run the other way; further: series mostly up to about 120 µM
# Target sequence (P11473 whole entry, looked up): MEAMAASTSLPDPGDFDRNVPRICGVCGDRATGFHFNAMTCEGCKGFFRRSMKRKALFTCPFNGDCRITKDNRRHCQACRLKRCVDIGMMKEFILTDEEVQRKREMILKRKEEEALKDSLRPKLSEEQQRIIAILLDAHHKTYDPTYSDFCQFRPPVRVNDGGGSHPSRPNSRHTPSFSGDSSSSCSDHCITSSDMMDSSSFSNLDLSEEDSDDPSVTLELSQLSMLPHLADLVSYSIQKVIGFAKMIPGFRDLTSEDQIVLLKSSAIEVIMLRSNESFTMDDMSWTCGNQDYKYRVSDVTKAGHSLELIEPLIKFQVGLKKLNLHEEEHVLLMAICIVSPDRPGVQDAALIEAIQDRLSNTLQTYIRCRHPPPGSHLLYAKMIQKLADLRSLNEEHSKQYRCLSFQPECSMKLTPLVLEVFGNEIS
#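 After 23 nl compound addition and a short centrifugation, plates sat for 2 hours at ambient temperature; polarization of fluorescence then indicated loss of VDR binding to peptide SRC2-3.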
# The depositor's hits bear a star; ? = inconclusive; & = joins results of further samples. On the % scale 0 is the no-effect control and ±100 the full control effect; potency means the concentration at half of the fitted maximal effect. Some of the compounds tested, so the mix of outcomes need not match the whole.
SMILES,VDR inhibitor
COc1ccc(CC(NC(C)=O)C(=O)NC2CCN(S(=O)(=O)c3ccccc3)CC2)c(OC)c1 (stereo not drawn),-24%
C=CCn1c(C)cc(C(=O)Cn2nc(C(=O)O)c3ccccc3c2=O)c1C,-25%
CCCn1cc(NC(=O)c2cc(-c3ccccc3)on2)cn1,-6%
COCCCNC(=O)CCCn1c(SCC(=O)c2ccc(F)cc2)nc2c(sc3ccccc32)c1=O,-7%
C[N+]12CCC(CC1)[C@@H](OC(=O)C(O)(c1ccccc1)c1ccccc1)C2,-1%
CCN1C(=O)/C(=C2\SC(=S)N(NC(=O)c3ccccc3O)C2=O)c2ccccc21,12%
COc1ccc(CCNC(=O)CNCC(c2ccccc2)N(C)C)cc1OC (stereo not drawn),-8%
CCc1c(C)sc2nc3c(C(=O)N4CCOCC4)cc(C(=O)c4ccccc4O)cn3c(=O)c12,21%
CC1(C)Oc2ccc(C(=O)NC3CCCC3)cc2N(CC(=O)N2CCOCC2)C1=O,-9%
Cn1c(=O)c(-c2cccc(F)c2)nc2cncnc21,-11%
CC(=O)Oc1ccc(-c2cccc(C(=O)NCCCO)c2)cc1,-8%
Cc1nn(-c2ccc(F)cc2)c(Cl)c1C(=O)NCC1CCCO1 (stereo not drawn),89µM*
O=[N+]([O-])c1cccc(N(CC(O)CN2CCCCC2)S(=O)(=O)c2ccccc2)c1 (stereo not drawn),8%
CCOc1ccccc1CN1CCC(n2nccc2NC(=O)C2CCCC2)CC1,-7%
O=C(CSCCc1ccccn1)Nc1cccnc1,10%
Cc1ccc(CSc2ncccc2C(=O)O)cc1,3%&-3%
COC(=O)CCc1sc(Nc2ccc(Br)cc2)nc1-c1ccc(OC)cc1,-1%
CCOc1ccc(C=C2SC(=O)N(CCN)C2=O)cc1,4%
Cc1ccc(-n2c(SCc3cccc(F)c3)nc3[nH]ncc3c2=O)cc1C,-4%
O=C(O)Cc1sc(Nc2ccc(C(=O)O)cc2)nc1-c1ccccc1,-6%
CCCCc1ccc(NS(=O)(=O)c2cccc(C(=O)N3CCCN(C)CC3)c2)cc1,-12%
Cc1ccc2cc3cc(C(=O)N4CC(C)CC(C)C4)oc3nc2c1 (stereo not drawn),-3%
Cc1cc(=O)cc(C)n1-c1ccc(Cl)cc1,-2%
COc1ccc2[nH]cc(C(=O)CN3CCCCC3)c2c1,3%
O=[N+]([O-])c1cccc(/C=N/Nc2nc(NCc3ccccc3)nc(N3CCOCC3)n2)c1O,10%

# Next part
SMILES,VDR inhibitor
CCOC(=O)CCN(Cc1cccs1)S(=O)(=O)c1ccc(Cl)cc1,0%
Cn1c(N)c(C(=O)CSc2nc3ccccc3[nH]2)c(=O)n(C)c1=O,-1%
CN(C)S(=O)(=O)c1cccc(NC(=S)Nc2cc(Cl)cc(Cl)c2)c1,-10%
COc1ccc(/C=N/NS(=O)(=O)c2ccccc2)cc1OC(=O)c1ccc(C)cc1,-29%
CC(=O)Nc1ccc(NC(=O)C(C)OC(=O)C2(c3ccc(Cl)cc3)CCCC2)cc1 (stereo not drawn),1%
CCc1ccc(CN(C)C(=O)CCc2nnc(COc3ccccc3)o2)cc1,3%
Cc1ccc(C)n1-n1c(C)nc2scc(-c3cccs3)c2c1=O,11%
COc1ccc(C[C@@H]2c3cc(OC)c(OC)cc3CC[N@+]2(C)CCC(=O)OCCCCCOC(=O)CC[N@@+]2(C)CCc3cc(OC)c(OC)cc3[C@H]2Cc2ccc(OC)c(OC)c2)cc1OC,5%
Cc1cccc(CSCc2ccc(C(=O)O)o2)c1,-6%
O=C(NCc1ccco1)C1OCCc2ccccc21 (stereo not drawn),18%
CCCOc1c(Br)cc(C(=O)OCc2cc(=O)n3ccsc3n2)cc1OC,-10%
CCOC(=O)C1=C(COC(=O)COc2cccc(C)c2C)NC(=O)NC1C (stereo not drawn),-34%
CCOc1ccc(NC(=O)CCc2nnc3ccc(N4CCC5(CC4)OCCO5)nn23)cc1,-7%
Cc1cccc(NC(=O)N2CCC(NC(=O)C3CCCCC3)CC2)c1,-11%
Cc1ccc(NC(=O)c2ccc(Nc3ccccc3F)nc2)cc1,21%
CCCCNC(=O)C1CCCN(c2nnc(C)c3c(C)n(-c4ccc(Cl)cc4)nc23)C1 (stereo not drawn),2%
O=C(Nc1ccc(F)cc1Cl)C1CCN(c2ncnc3c2nc2n3CCCCC2)CC1,6%
CCCN(CCC)CC(O)CN1C(=O)N(CN2C(=O)N(CC(O)CN(CCC)CCC)C(=O)C2(C)C)C(C)(C)C1=O (stereo not drawn),-8%
CC(=O)Nc1cccc(NC(=O)Cn2cnc3c2c(=O)n(C)c(=O)n3C)c1,-14%
CCCc1nnc(NC(=O)CCC(=O)N2CCN(c3ccccc3)CC2)s1,-14%
COCCNC(=O)Cn1cnc2ccc(S(=O)(=O)N3CCC(C)CC3)cc2c1=O,-13%
CN(C)C(=O)c1ccc(NC(=O)COC(=O)CC23CC4CC(CC(Br)(C4)C2)C3)cc1,2%
Cc1noc(C)c1S(=O)(=O)N1CCCC(C(=O)NC2CCCCC2)C1 (stereo not drawn),-1%
CCOC(=O)C1=C(C)NC(C)=C(C(=O)OCC)C1c1c(F)c(F)c(F)c(F)c1F,-6%
COc1cc(C(=O)N(Cc2ccc(C(C)C)cc2)C2CCS(=O)(=O)C2)cc(OC)c1OC (stereo not drawn),-4%

# 5 of the entries above in order of their number in VDR inhibitor, largest number first.
SMILES,VDR inhibitor
CCOC(=O)CCN(Cc1cccs1)S(=O)(=O)c1ccc(Cl)cc1,0%
COc1cc(C(=O)N(Cc2ccc(C(C)C)cc2)C2CCS(=O)(=O)C2)cc(OC)c1OC (stereo not drawn),-4%
CCOC(=O)C1=C(C)NC(C)=C(C(=O)OCC)C1c1c(F)c(F)c(F)c(F)c1F,-6%
CCCOc1c(Br)cc(C(=O)OCc2cc(=O)n3ccsc3n2)cc1OC,-10%
CCOC(=O)C1=C(COC(=O)COc2cccc(C)c2C)NC(=O)NC1C (stereo not drawn),-34%

# Next results:
SMILES,VDR inhibitor
CC1(c2nnc(-c3ccccc3)o2)CC(c2ccc(F)cc2)=NO1 (stereo not drawn),-16%
COc1cccc(COC(=O)C2CCN(C(=O)c3ccc(F)cc3)CC2)c1OC,-3%
O=C1CCC(=O)N1c1ccc(CSc2nnnn2C2CCCCC2)cc1,-14%
C[C@H](NC(=O)c1ccc(Cl)c(S(=O)(=O)N2CCOCC2)c1)c1nc2ccccc2[nH]1,0%
O=S(=O)(NCC(c1ccccc1)N1CCc2ccccc21)c1ccc(Cl)cc1 (stereo not drawn),-8%
CCOC(CNC(=O)CN1C(=O)COc2ccc(S(=O)(=O)N3CC(C)CC(C)C3)cc21)OCC (stereo not drawn),-1%
C=CCC(NCc1ccccc1)c1ccc(C)o1 (stereo not drawn),-23%
Cc1c(C(=O)NC(=S)Nc2ccc3c4c(cccc24)CC3)cccc1[N+](=O)[O-],-4%
O=C(Nc1cccc(C(=O)Nc2cccc(C(F)(F)F)c2)c1)c1ccc(=O)[nH]c1,-7%
O=C(N/N=C/c1ccc(O)c([N+](=O)[O-])c1)C(O)(c1ccccc1)c1ccccc1,-7%
Cn1c(/C(C#N)=C/c2ccncc2)nc2ccccc21,-22%
Cc1ccsc1/C=N/NC(=O)Cc1ccc(Cl)cc1,-11%
CC(=O)c1c(C(C)=O)c(C)n(NC(=O)c2cccnc2)c1C,-5%
Cc1nnc(SCc2nc3sc4c(c3c(=O)[nH]2)CCCC4)[nH]c1=O,-1%
Cc1ccc(/C=N/NC(=O)c2c(-c3ccccc3)noc2C)o1,-4%
Fc1ccc(CSc2nnc(-c3cc4c(s3)-c3ccccc3CC4)o2)cc1,3%
Cc1ccc(NC(=O)CN2C(=O)CCS(=O)(=O)c3ccccc32)cc1Cl,-2%
COc1ccc(NC(=O)NC2(C(=O)N3CCN4CCCC4C3)CCCCC2)cc1 (stereo not drawn),-6%
Cc1ccc(S(=O)(=O)N(C)c2ccc(OCC(=O)O)cc2)cc1,-3%
Cc1nc(-c2ccccc2)sc1-c1nc(-c2cccnc2)ncc1S(=O)(=O)c1ccccc1,13%
CCOC(=O)C1=C(COC(=O)c2ccc(Cl)cc2[N+](=O)[O-])NC(=O)NC1C (stereo not drawn),-1%
CC1CCN(CCc2nc3cc(NC(=O)Nc4ccccc4)ccc3n2C)CC1,-12%
O=C(O)CSc1nnc(CSc2nc3ccccc3s2)n1-c1ccccc1,3%
COc1ccc2nc(SCC(=O)N(C)CC(=O)Nc3ccc(F)cc3)[nH]c2c1,-4%
O=c1[nH]nc(Cc2ccc(-c3cccc(Cl)c3)o2)c2ccccc12,-19%

# Next section:
SMILES,VDR inhibitor
COCCNC(=O)CN(C(=O)CCC(=O)Nc1ccccn1)c1cc(C)ccc1C,-11%
COc1ccc(-c2c(-c3ccccc3OC)sc3ccccc23)cc1OC,-6%
Cc1ccc(C(=O)Nc2ccccn2)cc1S(=O)(=O)N1CCOCC1,3%
Cc1cnc(NC(=O)CSc2nnc(N)s2)s1,-3%
Cc1ccc(-c2nn(-c3ccccc3)cc2CN(C)C(=O)CCC(=O)O)cc1C,17%
O=C(NCCCn1ccnc1)C1CC2CCC1C2 (stereo not drawn),-11%
O=C1c2cccc3cccc(c23)C(=O)N1c1ccccn1,-8%
CCOC(=O)C1=C(C)N=c2s/c(=C/c3ccc(OCC(=O)O)cc3)c(=O)n2C1c1ccc(OC)cc1OC (stereo not drawn),-14%
O=C1C2C3C=CC(CC3)C2C(=O)N1c1ccc(Br)cc1[N+](=O)[O-] (stereo not drawn),10%
CCOC(=O)c1ccc(Nc2c(-c3ccc(O)cc3)nc3nc[nH]n23)cc1,-1%
O=C(CN1CCN(c2nc(-c3ccc(Cl)cc3)cs2)CC1)NCc1ccco1,-12%
Cc1ccc(S(=O)(=O)n2nc(-c3ccccc3)nc2NCc2ccc(Cl)cc2)cc1,4%
Cc1ccc2c(c1)-c1ncc(C(=O)c3cc(Br)ccc3O)cc1CO2,-10%
O=C(COc1ccc(OCc2ccccc2)cc1)NN=C1CCCC1,-9%
COc1cccc2sc(=NC(=O)CCS(=O)(=O)c3ccc(C)cc3)n(C)c12,-17%
CN(C)CCn1c(=N)n(CC(O)c2ccc(Cl)c(Cl)c2)c2ccccc21 (stereo not drawn),-25%
C/C(=N/Nc1nc(-c2ccccc2)c(CC(=O)O)s1)c1ccccc1,?
Cc1cccc2cc(CN(Cc3cccnc3)C(=O)c3ccncc3)c(=O)[nH]c12,9%
N#CCSc1nc2ccccc2c(=O)n1C1CCCCC1,-9%
NC(=O)C1=C[C@@H](c2csc3ccccc23)C[C@@H](OCCCCO)O1,-2%
CCOc1ccccc1C1C(C#N)=C(N)Oc2cc(N)ccc21 (stereo not drawn),16%
Cc1nnc(SCC(=O)N(Cc2ccccc2)C(C)C)n1-c1ccccc1,-3%
COCCCNc1oc(/C=C/c2cc(OC)c(OC)c(OC)c2)nc1C#N,3%
COc1ccc(NC(=O)C2CC(c3ccc(OC)c(OC)c3)=NO2)cc1OC (stereo not drawn),-14%
O=C(/C=C/c1ccco1)OCn1nnc2ccccc2c1=O,3%

# Seven compounds out of the list, arranged by length of the SMILES, smallest number first.
SMILES,VDR inhibitor
O=C1c2cccc3cccc(c23)C(=O)N1c1ccccn1,-8%
COc1ccc(NC(=O)C2CC(c3ccc(OC)c(OC)c3)=NO2)cc1OC (stereo not drawn),-14%
O=C(CN1CCN(c2nc(-c3ccc(Cl)cc3)cs2)CC1)NCc1ccco1,-12%
O=C(Nc1ccc(F)cc1Cl)C1CCN(c2ncnc3c2nc2n3CCCCC2)CC1,6%
COc1ccc(/C=N/NS(=O)(=O)c2ccccc2)cc1OC(=O)c1ccc(C)cc1,-29%
C[C@H](NC(=O)c1ccc(Cl)c(S(=O)(=O)N2CCOCC2)c1)c1nc2ccccc2[nH]1,0%
CCCN(CCC)CC(O)CN1C(=O)N(CN2C(=O)N(CC(O)CN(CCC)CCC)C(=O)C2(C)C)C(C)(C)C1=O (stereo not drawn),-8%

# Entries above printed as active in VDR inhibitor:
SMILES,VDR inhibitor
Cc1nn(-c2ccc(F)cc2)c(Cl)c1C(=O)NCC1CCCO1 (stereo not drawn),89µM*

# Continued.
SMILES,VDR inhibitor
Cc1ccccc1C(=O)NC1CCN(Cc2nnnn2C(C)(C)C)CC1,5%
O=C1Nc2cc(S(=O)(=O)N3CCCC3)ccc2N2CCCC12 (stereo not drawn),3%
O=C(NC12CCC(O)C(SC1)/C2=N/O)c1ccccc1 (stereo not drawn),1%
COCCn1c(C)cc(O)c(C(c2ccccc2Cl)N2CCCCC2)c1=O (stereo not drawn),4%
O=C(COC(=O)c1ccccc1-n1cnnn1)c1ccc(Br)cc1,-2%
C#CCOCCOCCOCCNc1nc(N2CCN(C(=O)Cn3cc(CCCN=C(N)N)nn3)CC2)nc(N2CCN(C(=O)[C@H](C(C)C)n3cc(CCO)nn3)CC2)n1,-13%
Cc1ccc(Sc2ccc(CN3CCCC3)cc2[N+](=O)[O-])cc1,-9%
C/C=C/C(=O)N1CC2(CC(c3cccc(NC(=O)/C(C)=C/C)c3)=NO2)C[C@H]1C(N)=O (stereo partly drawn),-19%
CC1=NN(c2ccccc2)C(=O)/C1=C/c1ccc(-c2ccc(C)c(C(=O)O)c2)o1,?
O=C(CC1SC(N2CCOCC2)=NC1=O)Nc1ccccc1Cl (stereo not drawn),-5%
CC1(C)Cc2nc(-c3ccccc3)nc(SCC(O)CO)c2CO1 (stereo not drawn),-21%
Cc1c(NC(=O)c2ccc3c4c(cccc24)CC3)c(=O)n(-c2ccccc2)n1C,-11%
Cc1ccc(C)c(NC(=O)CN(C)C(=O)/C=C/c2ccco2)c1,-14%
CCOC(=O)C1CCCN(c2c(C(=O)c3ccc(OCC)cc3)cnc3ccccc23)C1 (stereo not drawn),6%
COc1cc(OC)c(C2C(C#N)=C(N)OC3=C2C(=O)CC(C)C3)cc1OC (stereo not drawn),-5%
Cc1ccc(C)c(NC(=S)NCCc2ccc(S(N)(=O)=O)cc2)c1,15%
O=c1c2ccccc2nnn1Cc1cccc2ccccc12,-5%
COc1cc(C(=O)Nc2nccs2)c(Br)c(OC)c1OC,-1%
COc1ccc(S(=O)(=O)N2CCN(S(=O)(=O)c3ccc4c(c3)OCCO4)CC2)cc1C,-12%&13%

# Bioassay records from PubChem BioAssay.
